KCNQ2 block: KCNQ2 channel blockers in CHO-K1 cells – cell-based, FluxOR thallium flux, B-score, primary screen (AID 2156); B-score at 10 µM; O88943; 1.1% of 310,000 active; 20 min; hits give low values; only compounds with negative scores are shown here; some inactives read as strong as hits;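 active = fluorescence ratio B-score at most minus 3 library SDs, with starting brightness B-score within 2 library SDs, cut at about -5.5 in these data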
Target sequence (O88943 whole entry, looked up): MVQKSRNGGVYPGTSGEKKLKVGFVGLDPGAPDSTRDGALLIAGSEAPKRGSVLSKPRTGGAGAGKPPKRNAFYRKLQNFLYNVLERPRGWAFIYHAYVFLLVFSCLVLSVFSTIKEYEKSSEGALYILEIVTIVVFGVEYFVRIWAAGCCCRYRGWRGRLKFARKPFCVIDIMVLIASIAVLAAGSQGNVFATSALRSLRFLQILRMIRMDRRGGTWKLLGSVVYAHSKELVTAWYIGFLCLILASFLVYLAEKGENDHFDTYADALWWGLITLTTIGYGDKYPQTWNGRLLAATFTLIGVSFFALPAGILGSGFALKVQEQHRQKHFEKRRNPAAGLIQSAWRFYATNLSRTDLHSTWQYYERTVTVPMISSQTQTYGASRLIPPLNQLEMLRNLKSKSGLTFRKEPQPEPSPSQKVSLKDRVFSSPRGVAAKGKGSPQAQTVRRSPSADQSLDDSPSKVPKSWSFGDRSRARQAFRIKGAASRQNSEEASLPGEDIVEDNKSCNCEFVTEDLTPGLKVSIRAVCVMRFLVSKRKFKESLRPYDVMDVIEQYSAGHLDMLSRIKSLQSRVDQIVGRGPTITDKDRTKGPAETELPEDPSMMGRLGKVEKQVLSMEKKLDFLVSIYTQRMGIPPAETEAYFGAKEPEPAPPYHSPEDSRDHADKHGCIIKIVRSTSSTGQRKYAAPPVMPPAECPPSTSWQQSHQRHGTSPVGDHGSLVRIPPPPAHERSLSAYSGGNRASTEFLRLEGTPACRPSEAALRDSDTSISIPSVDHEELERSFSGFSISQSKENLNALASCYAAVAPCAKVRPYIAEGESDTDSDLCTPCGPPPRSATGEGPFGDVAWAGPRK
KCNQ2 block baseline: recorded beside KCNQ2 block, whose call it bears; B-score; measured here: initial fluorescence intensity artifact check;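 brightness before thallium and not channel activity; 0 = typical well and far values either way flag optical interference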
Active calls of the source: *; i = inactive. The list is partial; count on the stated rates, not on these rows.

SMILES	KCNQ2 block	KCNQ2 block baseline
O=C1CC(C(=O)O)C2(CCCC2)O1 (stereo not drawn)	i	-0.03
O=C(CN(Cc1ccc(F)cc1)C(=O)c1csnn1)NC1CCCC1	i	-0.14
CCOC(=O)CN(C(=O)CNC(=O)c1cccs1)C(C(=O)NC1CCCCC1)c1cccnc1 (stereo not drawn)	i	-0.72
CN1CCN(C(=O)CCc2nc3ccccc3c(=O)[nH]2)CC1	i	-1.9
CC(C)Cn1c(SC(C)C(=O)Nc2ccc(N3CCOCC3)cc2)nc2ccccc21 (stereo not drawn)	i	0.89
Cc1ccc(OCCC(=O)N(CCC(C)C)c2c(N)n(Cc3ccccc3)c(=O)[nH]c2=O)cc1	i	2.5
CC1=CCC2([N+](=O)[O-])CN(CC(=O)O)CC1([N+](=O)[O-])C2 (stereo not drawn)	i	2.8
COc1ccc(CN(C(=O)c2ccc3c(c2)OCCO3)C(C(=O)NC2CCCCC2)c2ccc3ncccc3c2)cc1 (stereo not drawn)	i	-0.44

Pulled by compound from above:
SMILES	KCNQ2 block	KCNQ2 block baseline
CC(C)Cn1c(SC(C)C(=O)Nc2ccc(N3CCOCC3)cc2)nc2ccccc21 (stereo not drawn)	i	0.89
O=C1CC(C(=O)O)C2(CCCC2)O1 (stereo not drawn)	i	-0.03
O=C(CN(Cc1ccc(F)cc1)C(=O)c1csnn1)NC1CCCC1	i	-0.14
COc1ccc(CN(C(=O)c2ccc3c(c2)OCCO3)C(C(=O)NC2CCCCC2)c2ccc3ncccc3c2)cc1 (stereo not drawn)	i	-0.44
CCOC(=O)CN(C(=O)CNC(=O)c1cccs1)C(C(=O)NC1CCCCC1)c1cccnc1 (stereo not drawn)	i	-0.72
Cc1ccc(OCCC(=O)N(CCC(C)C)c2c(N)n(Cc3ccccc3)c(=O)[nH]c2=O)cc1	i	2.5
CN1CCN(C(=O)CCc2nc3ccccc3c(=O)[nH]2)CC1	i	-1.9

(cont.)
SMILES	KCNQ2 block	KCNQ2 block baseline
CCCNc1nc(OCC(F)(F)F)nc(OCC(F)(F)F)n1	i	-0.86
CCCS(=O)(=O)n1nc(-c2ccccc2)cc1N	i	-0.26
Cc1nn(-c2ccccc2)c(C)c1[N+](=O)[O-]	i	-0.63
CC(C)C(=O)Nc1cccc(C(=O)NCCc2ccc(S(N)(=O)=O)cc2)c1	i	-0.07
Cc1cnc(C(=O)Nc2ccc(N3CCCCC3)cc2)cn1	i	-0.01
Cc1ccc(C)c(N2CCN(C(=O)CCCCCn3c(=S)[nH]c4ccc(N5CCOCC5)cc4c3=O)CC2)c1	i	-1.1
CC(C)CCNC(=O)C1CC(c2ccc(C(F)(F)F)cc2)=NO1 (stereo not drawn)	i	-1.2
CNS(=O)(=O)c1c(C)cc(C)c(N(C)S(=O)(=O)c2ccccc2)c1C	i	1.1
Cc1ccc(C(=O)NCc2ccco2)cc1S(=O)(=O)N1CCCCC1	i	-0.06
COc1cccc(NC(=O)N2CCCC2)c1	i	1.4
O=S(=O)(NCCSc1ccccn1)c1ccc(Br)cc1	i	1.1
Cc1cc(NC(=O)CSCC(=O)Nc2nc3c(C)cccc3s2)no1	i	-1
COCC(=O)Nc1cc(=O)n(C)c(=O)n1C	i	2.9
COc1ccccc1/C=N/Nc1cc(N(C)C)nc(N(C)C)n1	i	1.6
O=[N+]([O-])c1cccc(C2CC(c3ccccc3)=NN2c2ccccc2)c1 (stereo not drawn)	i	0.26
c1ccc(-n2cnc3cc(NCc4cccs4)ccc32)cc1	i	-0.78
O=C(NCCc1ccco1)C(=O)NCCC1CCCCN1S(=O)(=O)c1ccccc1 (stereo not drawn)	i	-1.9
CCOC(=O)CN1C(=O)S/C(=C\c2ccc(-c3ccc(C(=O)O)c(Cl)c3)o2)C1=O	i	0.04
CCO[C@H]1OC(C(=O)N2CCN(C)CC2)=C[C@@H](c2csc3ccccc23)[C@@H]1CCCO	i	-3.6
CCN(CC)c1ccc2oc(=O)c(C)nc2c1	i	3.5
N#Cc1ccccc1NC(=O)C1SC(=Nc2ccccc2)C(C(=O)Nc2ccc(Cl)cc2)=C1N (stereo not drawn)	i	-2
CCCCN(C(=O)CCC(=O)Nc1cc(C)on1)C(C(=O)NC1CCCC1)c1ccc(F)cc1 (stereo not drawn)	i	-1.2
CC1=C(C(=O)Nc2ccccc2)C(c2cccs2)n2nnnc2N1 (stereo not drawn)	i	0.4
Cn1c(SCC(=O)Nc2ccc3c(c2)OCCO3)nnc1-c1cccnc1	i	0.01
O=C1CC(c2ccc(Cl)cc2)CC(=O)C1CS(=O)(=O)c1ccccc1 (stereo not drawn)	i	-1.9
NS(=O)(=O)c1ccc(CNC(=O)Cc2ccccc2F)cc1	i	-0.86
O=C(Oc1ccccc1C(=O)Oc1ccccc1)c1cccnc1	i	-1.2
Cc1ccc(N(CC(=O)Nc2c(C)n(C)n(-c3ccccc3)c2=O)S(C)(=O)=O)cc1C	i	0.35
COc1ccc(C2NC(c3ccc(OC)cc3)C(c3ccccc3)C(=O)C2c2ccccc2)cc1 (stereo not drawn)	i	-1
CCCOc1ccc(/C(O)=C2/C(=O)C(=O)N(CCOC)C2c2cccnc2)cc1 (stereo not drawn)	i	-0.5
COC(=O)c1nc[nH]c1C(=O)OC	i	1.2
CC1=CC2=NC(=O)/C(=C\c3cccn3CCOc3cccc(C)c3)C(=N)N2O1	i	-1.6
COc1ccc(-c2nc(-c3ccccc3)ncc2S(C)(=O)=O)cc1	i	-1
O=C(Cc1ccccc1F)Nc1nc(-c2ccc(F)c(F)c2)cs1	i	0.04
COc1ccc(CN2CCNC(=O)C2CC(=O)NC2CCCCCC2)c(F)c1 (stereo not drawn)	i	0.73
O=C(CN(Cc1ccco1)C(=O)CNS(=O)(=O)c1ccc(F)cc1)NCCc1ccccc1	i	-0.42
O=C(CN1C(=O)CCS(=O)(=O)c2ccccc21)Nc1cccc(F)c1	i	-0.4
O=C(CCC(=O)Nc1ccccc1)N/N=C/C=C/c1ccccc1	i	-0.18
CCOc1ccc(NC(=O)Nc2cccnc2)cc1	i	1.5
O=C(c1ccc2oc(CCc3ccccc3)nc2c1)N1CC[C@H](O)C1	i	0.48
C=CCNC(=O)C1(c2ccccc2)CC1(Cl)Cl (stereo not drawn)	i	0.86
CSc1n[nH]c(NC(=O)c2c(-c3c(Cl)cccc3Cl)noc2C)n1	i	0.67
O=Cc1ccc(OCCOc2ccc([N+](=O)[O-])cc2)cc1	i	1.3
C=CCN(Cc1cc(OC)ccc1OC)S(=O)(=O)N(C)C	i	0.01
COc1ccc(-c2nc(CS(=O)(=O)CC(=O)NCCCN3CCOCC3)c(C)o2)cc1	i	-0.48
CCCC(=O)N1CCN(c2ccc(NC(=O)c3ccc4c(c3)OCCO4)cc2)CC1	i	-0.14
O=C(Nc1cccc(NC(=S)NC(=O)c2cccs2)c1)c1ccccc1	i	1.2
CC1(CC(=O)N/N=C/c2cc(Br)c(O)cc2O)OCCO1	i	1.5
COc1ccc(-c2ccc(CCC(=O)O)n2-c2ccccc2O)cc1	i	-0.31
COc1ccc(-n2c(=O)[nH]cc(C(=O)Nc3ccc(NC(C)=O)cc3)c2=O)cc1	i	-0.52
CN(C)/C=N/c1c(C#N)nnn1Cc1ccccc1	i	0.05
Cc1ccc(Cn2cccc(NS(C)(=O)=O)c2=O)cc1	i	3
Cc1ccc2nc(SCC(=O)Nc3ccc(C)c(Cl)c3)nc(=O)n2c1	i	0.73
CCn1cc([N+](=O)[O-])c(C(=O)N2CCCCCC2)n1	i	1.1
O=C(CNC(=O)c1ccco1)NCC(=O)OCc1ccc(F)cc1	i	-1
CCN(CC(=O)NCc1ccccn1)S(=O)(=O)c1cc(Cl)ccc1Cl	i	0.4

One compound at a time, from the list above.
COc1ccc(-n2c(=O)[nH]cc(C(=O)Nc3ccc(NC(C)=O)cc3)c2=O)cc1 reads KCNQ2 block = i; KCNQ2 block baseline = -0.52
Cc1ccc2nc(SCC(=O)Nc3ccc(C)c(Cl)c3)nc(=O)n2c1 reads KCNQ2 block = i; KCNQ2 block baseline = 0.73

Remaining list, next part
SMILES	KCNQ2 block	KCNQ2 block baseline
CCN(CC)c1ccc(NC(=O)CN2CCN(c3ccccn3)CC2)cc1	i	-1.3
CCCC(c1nnnn1Cc1ccc(OC)cc1)N1CCN(c2ccccc2OC)CC1 (stereo not drawn)	i	0.01
COc1cc(/C=N/n2c(C)nc3ccccc3c2=O)ccc1O	i	-2.3
COc1ccc(CC(=O)N2CCCC(CNC(=O)c3ccccc3Cl)C2)cc1 (stereo not drawn)	i	-0.05
CC(=O)c1ccc(OC(=O)C2c3ccccc3Oc3ccccc32)cc1	i	0.39
CCCn1c(SCC(=O)N2CCN(c3ccc(OC)cc3)CC2)nc2c1c(=O)n(C)c(=O)n2C	i	-0.72
O=C(CCN1CCN(C(c2ccccc2)c2ccccc2)CC1)N/N=C/c1ccc(O)cc1O	i	0.14
COc1ccccc1CN1C(=O)CCC1(C)C(=O)NCc1cccnc1 (stereo not drawn)	i	-0.01
CN1CCN(C(=O)c2c(O)c3cccc4c3n(c2=O)CC4)CC1	i	-2.3
O=S(Cc1cc(Sc2ccccc2)nc(-c2ccccc2)n1)c1ccccc1 (stereo not drawn)	i	0.08
CC1SC(c2ccc(F)cc2)NC1=O (stereo not drawn)	i	-1.2
Cc1ccc(C)c(CN2C(=O)CSc3ccc(C(=O)N4CCCC4)cc32)c1	i	0.56
Cc1nnsc1C(=O)Nc1cccc(Cl)c1Cl	i	0.11
COc1ccccc1NC(=O)c1csc(-n2nc(C)cc2C(F)(F)F)n1	i	2.5
C#CCNC(=O)C1=C[C@@H](C2CCCCC2)C[C@@H](OCc2ccc(CO)cc2)O1	i	0.13
CC(=O)c1ccc(NC(=S)N2CCCCCC2)cc1	i	1.2
COc1ccc(CN(C)CC2CCCN(CCc3ccc(F)cc3)C2)cc1OC (stereo not drawn)	i	-0.62
Cc1[nH]c2ccccc2c1CCNC(=O)CCC(=O)c1ccccc1	i	-0.14
CC(C)c1ccccc1OCC(=O)N(C)CC(=O)Nc1ccc(F)cc1	i	0.38
Cc1cccc(Cc2nnc(CCC(=O)N(CC3CC3)CC3CCCO3)o2)c1 (stereo not drawn)	i	2.1
Cc1cccc2c1N(C(=O)c1ccco1)C(C)(C)c1ssc(=S)c1-2	i	0.26
Cn1c(-c2ccccc2)cnc1SCC(=O)N1CCCc2ccccc21	i	0.05
O=C(CN(c1ccccc1)S(=O)(=O)c1ccccc1)N1CCOCC1	i	0.23
CC(C)(C)N1CC2([N+](=O)[O-])CN(C(C)(C)C)CC([N+](=O)[O-])(C1)C2	i	3.4
O=C(OCc1ccccc1Cl)C1CC(=O)N(Cc2ccco2)C1 (stereo not drawn)	i	-0.23
N=c1c(C(=O)NCC2CCCO2)cc2c(=O)n3ccccc3nc2n1Cc1cccnc1 (stereo not drawn)	i	4.5
COc1cccc(NC(=O)c2ccccc2-c2nc(-c3ccccc3)no2)c1	i	2.5
Nc1nc[nH]c(=O)c1N=Cc1ccccc1	i	-0.04
C=CCOc1c(Cl)cc(C2NC(=O)NC(C)=C2C(=O)OC)cc1Cl (stereo not drawn)	i	-0.26
C[C@H]1CN=C(Nc2ccccc2)N1CCCC1CCCCC1	i	0.02
CC(C)(C)NC(=O)CSc1nncn1NCc1c(Cl)cccc1Cl	i	1.5
CC(C)Oc1ccc(C2CC(=O)N(Nc3ccc([N+](=O)[O-])cc3[N+](=O)[O-])C2=O)cc1 (stereo not drawn)	i	-0.35
O=C(COc1ccc(/C=N/NS(=O)(=O)c2ccccc2)cc1)Nc1ccc(F)cc1	i	-1.8
CC(C)c1ccc(NC(=O)COc2ccc(F)cc2C(=O)c2cnn(-c3ccccc3)c2)cc1	i	-0.08
O=S(=O)(NC1CCCC1)c1cccc(S(=O)(=O)N2CCC(n3nnc4ccccc43)CC2)c1	i	0.07
CC1CC(C)(C)NC(=O)O1 (stereo not drawn)	i	0.12
CCN1CCN(C(c2cccc(OC)c2)c2sc3nc(C)nn3c2O)CC1 (stereo not drawn)	i	1.4
CCN1CCN(c2nc3c(C)cccn3c(=O)c2/C=C(\C#N)S(=O)(=O)c2ccc(C)cc2)CC1	i	2.5
CCCCC(O)(CCCC)C(=O)NN(C(=O)OC)c1ccccc1	i	-0.14
Cc1nc([N+](=O)[O-])c(Br)n1CC(=O)c1ccc(Cl)cc1	i	-0.13
CCn1c(SCC(=O)c2ccc(O)c(O)c2)nnc1-c1ccccc1	i	-0.39
COc1ccc(C2CC(=O)c3cnc(NC(=O)c4ccco4)nc3C2)cc1 (stereo not drawn)	i	3.5
c1ccc(-c2ccc(-c3cn4c(n3)CCC4)cc2)cc1	i	0.12
Cn1c(=O)c2c(nc(N/N=C/c3cccnc3)n2Cc2ccc(F)cc2)n(C)c1=O	i	-1.5
N#Cc1ccc(CSc2nnc(-c3cccnc3)o2)cc1	i	1.4
CC(C)CCNC(=O)c1ccc2nc[nH]c2c1	i	-1.1
CCOc1ccc(-c2nc(N)ncc2-c2ccccc2)c(O)c1	i	0.57
Cc1c(CC(=O)N[C@@H](CCCNC(N)=O)C(=O)O)c(=O)oc2cc3oc4c(c3cc12)CCCC4	i	-0.05
Cn1nc(C(C)(C)C)c([N+](=O)[O-])c1C(=O)Nc1ccccc1	i	-0.01
Cc1ccc(-n2nc(C)c(NC(=O)CCl)c2C)cc1	i	0.01
CCCCN1C=CC(=C2N=c3cccc([N+](=O)[O-])c3=N2)C=C1	i	2.2
OC1(C#CCN2CCOCC2)CCCCC1	i	1.8

Assay outcomes deposited in PubChem BioAssay by Johns Hopkins Ion Channel Center.
